FGF22 binding: FGF22 (human) thermal shift binding. Q9HCT0. recombinant FGF22 thermal shift, SYPRO orange fluorescence; percent of sucrose octasulfate shift, DMSO zero. calls only at 9.99 µM. actives 1.5% (n = 340,000). AID 651658;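 active means melting point raised past a set limit in the mean and every replicate; three in four hits are not shown here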
Target sequence (Q9HCT0 whole entry, looked up): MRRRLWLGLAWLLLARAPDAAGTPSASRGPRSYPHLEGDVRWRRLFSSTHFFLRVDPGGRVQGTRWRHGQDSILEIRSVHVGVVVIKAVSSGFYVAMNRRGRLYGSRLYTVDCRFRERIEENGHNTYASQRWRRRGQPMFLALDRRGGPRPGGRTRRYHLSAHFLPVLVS
rRNA inh HTS: inhibitors of bacterial rRNA selective over humanized ribosomes; actives 1.6% (n = 350,000); E. coli WT GFP vs humanized-ribosome RFP mutants, fluorescence, 24 h; stronger effect = lower value; DMSO median 0, no signal -100; GFP signal change (wild-type ribosome), % (test concentration not listed);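 active means significant combined selectivity score with lowered wild-type GFP, culture density cut under 30%, mutant RFP and density less affected; inactive means any of these conditions unmet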; further: one replicate is shown; some compounds called inactive have numbers as strong as hits
MLL AF4-AF9 inh: blocks AF4 peptide binding to human AF9; AlphaScreen, biotin-AF4 peptide binding to FLAG-AF9; inhibition, % at 10 µM; actives 0.47% (n = 350,000); AID 651704;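 active means every replicate reaching a set inhibition limit, whatever the replicate mean, cut at about 25% in these data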;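 further: 0% = plate neutral control median and 100% = total signal loss; the record names both 10 and 1 µM as test concentration; the first replicate is given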
Target sequence (P42568 whole entry, looked up): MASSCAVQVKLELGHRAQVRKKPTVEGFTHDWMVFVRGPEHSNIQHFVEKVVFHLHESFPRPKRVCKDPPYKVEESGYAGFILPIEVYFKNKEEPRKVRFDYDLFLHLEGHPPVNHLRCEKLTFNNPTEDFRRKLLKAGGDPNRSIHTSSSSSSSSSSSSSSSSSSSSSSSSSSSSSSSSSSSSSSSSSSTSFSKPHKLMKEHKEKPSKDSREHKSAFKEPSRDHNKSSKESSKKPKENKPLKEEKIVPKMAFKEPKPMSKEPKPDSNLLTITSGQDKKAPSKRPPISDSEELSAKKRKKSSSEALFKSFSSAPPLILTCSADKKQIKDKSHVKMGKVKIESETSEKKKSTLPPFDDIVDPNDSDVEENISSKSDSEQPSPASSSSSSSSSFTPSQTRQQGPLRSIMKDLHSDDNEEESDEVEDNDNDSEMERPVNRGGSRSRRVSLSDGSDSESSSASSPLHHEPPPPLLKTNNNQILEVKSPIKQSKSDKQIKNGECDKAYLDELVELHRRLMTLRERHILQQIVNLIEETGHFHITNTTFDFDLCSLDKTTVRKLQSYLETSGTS
rRNA inh HTS OD600: second read-out of rRNA inh HTS, no call of its own (marks repeat the call); OD600 change, %; measured here: OD600 growth;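 optical density of the mix in the first replicate; 0 = DMSO median and -100 = no signal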
rRNA inh HTS RFP: further read-out of rRNA inh HTS, marked with its call; RFP signal change, %; measured here: RFP humanized mutant strains;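 first replicate; 0 = DMSO median and -100 = no signal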
Starred values were filed as active, the others as inactive; i = inactive; + = active, no number. Only part of the results is shown; rates above refer to the full screens.

cpd | SMILES | FGF22 binding | rRNA inh HTS | rRNA inh HTS OD600 | rRNA inh HTS RFP | MLL AF4-AF9 inh
1 | O=C(COC(=O)c1cccnc1Cl)Nc1ccc(N2CCOCC2)cc1 | i | -2 | 5 | -1.0 | -2.1
2 | COc1ccccc1-c1cnc2c(c1)C(=O)N([C@H](C)CO)C[C@@H](C)[C@H](CN(C)C(=O)c1ccccc1)O2 | i | -3 | -2 | 0.7 | -1.3
3 | CC1(C(=O)O)CCCN1C(=O)c1cccc(C(F)(F)F)c1 (configuration not stated) | i | 13 | 7 | 4.6 | 1.5
4 | Cc1ccccc1CNC(=O)c1csc([C@@H]2O[C@H](CO)[C@@H](O)[C@H]2O)n1 | i | 12 | 12 | -2.8 | -2.4
5 | COc1ccc(S(=O)(=O)Nc2ccc3c(c2)CC(=O)N([C@@H](C)CO)C[C@H](C)[C@H](CN(C)S(=O)(=O)c2c(C)noc2C)O3)cc1 | i | 2 | -6 | 0.1 | 2.3
6 | C[C@H](CO)N1C[C@H](C)[C@H](CN(C)C(=O)c2ccncc2)OCCCC[C@H](C)Oc2ccc(NS(=O)(=O)c3ccccc3)cc2C1=O | i | -2 | -2 | -2.3 | 0.3
7 | O=C1C[C@@H]2c3c(cccc3CN1Cc1ccccc1F)C[C@@H](O)[C@H]2O | i | 1 | 4 | -7.4 | 1.7
8 | COc1ccc(S(=O)(=O)Nc2ccc3c(c2)C(=O)N([C@@H](C)CO)C[C@H](C)[C@H](CN(C)C(=O)Cc2ccccc2)OCCCC[C@@H](C)O3)cc1 | i | -3 | -3 | 2.2 | -0.8
9 | O=C(c1cnccn1)N1C[C@@H]2[C@H](c3ccccc31)[C@H](CO)N2Cc1ccc2c(c1)OCO2 | i | 6 | 10 | 0.8 | -9.7
10 | C[C@H](CO)N1C[C@H](C)[C@H](CN(C)C(=O)Cc2ccncc2)Oc2cc(-c3cncnc3)ccc2S1(=O)=O | i | 2 | 3 | -1.3 | -3.1

cpd | SMILES | FGF22 binding | rRNA inh HTS | rRNA inh HTS OD600 | rRNA inh HTS RFP | MLL AF4-AF9 inh
11 | COc1ccc(S(=O)(=O)Nc2ccc3c(c2)C(=O)N([C@@H](C)CO)C[C@H](C)[C@@H](CN(C)S(=O)(=O)c2c(C)noc2C)OCCCC[C@H](C)O3)cc1 | i | -1 | -3 | 3.0 | 2.1
12 | CC=Cc1ccc2n(c1=O)C[C@H]1[C@H](CO)[C@@H](C(=O)N3CCc4ccccc4C3)N(C(=O)C3CCC3)[C@@H]21 (mixture of isomers) | i | -2 | -4 | -1.3 | -0.2
13 | C[C@H]1CN([C@@H](C)CO)C(=O)c2cc(-c3ccc(C#N)cc3)cnc2O[C@H]1CN(C)C(=O)Nc1ccccc1 | i | -9 | -5 | -3.6 | -2.2
14 | CNc1nnc(SCC(=O)c2c(N)n(C3CC3)c(=O)[nH]c2=O)s1 | i | 27 | 19 | 0.3 | -1.8
15 | COc1cccc(C(=O)Nc2ccc3c(c2)C(=O)N(C)[C@@H]2CC[C@H](CC(=O)N[C@@H](C)c4ccccc4)O[C@H]2CO3)c1 | i | -7 | -6 | -0.6 | -1.1
16 | Cc1noc(C)c1NC(=O)Nc1ccc2c(c1)C(=O)N([C@H](C)CO)C[C@@H](C)[C@@H](CN(C)CC1CCCCC1)OCCCC[C@H](C)O2 | i | 5 | 13 | 1.8 | 0.9
17 | CN1C(=O)c2cc(NS(=O)(=O)c3cccc(F)c3)ccc2OC[C@H]2O[C@@H](CC(=O)O)CC[C@@H]21 | i | 0 | -2 | -3.5 | -2.8
18 | COC(=O)C1=C(C)N(Cc2ccccc2C(F)(F)F)C(=NCc2ccc(OC)cc2)NC1CCc1ccccc1 (configuration not stated) | i | -57 | -79 | -17 | 8.4
19 | C[C@H]1COc2cc(N3CCC[C@H]3CO)ccc2S(=O)(=O)N1 | i | 10 | 7 | 6.2 | -3.1
20 | C[C@@H]1CN([C@H](C)CO)C(=O)c2cc(C#CCN(C)C)cnc2O[C@H]1CN(C)S(=O)(=O)c1cn(C)cn1 | i | 2 | 3 | -3.8 | -4.0

cpd | SMILES | FGF22 binding | rRNA inh HTS | rRNA inh HTS OD600 | rRNA inh HTS RFP | MLL AF4-AF9 inh
21 | Cc1noc(C)c1NC(=O)N(C)C[C@@H]1Oc2ccc(NC(=O)Cc3cn(C)c4ccccc34)cc2C(=O)N([C@H](C)CO)C[C@H]1C | i | -3 | -6 | -2.5 | -11
22 | NC(=S)NN=Cc1nccc2c(N)cccc12 | i | -5 | 10 | -8.5 | 1.0
23 | CN(C)C(=O)C[C@@H]1C=C[C@H](NC(=O)c2ccc(F)cc2)[C@@H](CO)O1 | i | 2 | 0 | -0.6 | -0.1
24 | Cc1noc(C)c1NC(=O)N(C)C[C@H]1Oc2ccc(NS(=O)(=O)c3cn(C)cn3)cc2CC(=O)N([C@@H](C)CO)C[C@H]1C | i | 4 | 2 | -0.2 | 0.0
25 | O=C(C[C@@H]1C[C@H]2c3cc(NC(=O)Nc4ccc(C(F)(F)F)cc4)ccc3O[C@H]2[C@@H](CO)O1)NCc1cccnc1 | i | 0 | 14 | 7.0 | 2.6
26 | C[C@@H]1CN([C@@H](C)CO)C(=O)c2cccc(NC(=O)c3ccncc3)c2O[C@@H]1CN(C)C(=O)NC1CCCCC1 | i | -7 | -9 | -1.9 | -2.2
27 | C[C@H](O)C#Cc1ccc2c(c1)O[C@H](CN(C)Cc1cncnc1)[C@H](C)CN([C@@H](C)CO)S2(=O)=O | i | -2 | -3 | 0.3 | -0.1
28 | CC(C)NC(=O)N1[C@H](CO)[C@@H]2c3ccccc3N(C(=O)c3ccccc3F)C[C@@H]21 | i | 3 | 0 | -2.7 | -0.4
29 | CCCCCCCCN1C(=O)[C@H](CC(=O)NCCCOC)C[C@@]2(C(=O)OC)CCCCC=C12 | i | -12 | -37 | 6.1 | -0.4
30 | CNC[C@H]1Oc2cc(C#CC(C)C)ccc2S(=O)(=O)N([C@@H](C)CO)C[C@@H]1C | i | 2 | 1 | 1.7 | 4.5

cpd | SMILES | FGF22 binding | rRNA inh HTS | rRNA inh HTS OD600 | rRNA inh HTS RFP | MLL AF4-AF9 inh
31 | Nc1ncnc2c1ncn2[C@@H]1O[C@H](C(=O)N2CCN(c3nc4ccccc4o3)CC2)[C@@H](O)[C@H]1O | i | -3 | 1 | -1.2 | -2.4
32 | Cc1ccc(S(=O)(=O)Nc2ccc3c(c2)C(=O)N([C@H](C)CO)C[C@@H](C)[C@@H](CN(C)C(=O)CCCN(C)C)OCCCC[C@H](C)O3)cc1 | i | 1 | 4 | -4.3 | -0.8
33 | COc1ccc(C#Cc2cnc3c(c2)C(=O)N([C@H](C)CO)C[C@H](C)[C@H](CN(C)C(=O)NC2CCCCC2)O3)cc1OC | i | -8 | -9 | 7.0 | 3.0
34 | C[C@H]1CN([C@@H](C)CO)C(=O)Cc2cc(NC(=O)c3ccncc3)ccc2O[C@H]1CN(C)Cc1ccc(Cl)c(Cl)c1 | i | -17 | -26 | 7.5 | 3.7
35 | COc1cccc(-c2ccc3c(c2)[C@@H]2[C@@H](CCN2C(=O)Cc2ccccc2)[C@H](CO)N3)c1 | i | -23 | -55 | 7.8 | 5.9
36 | COCc1cn(CC[C@@H]2CC[C@@H](NC(=O)Nc3ccccc3)[C@@H](CO)O2)nn1 | i | -2 | -4 | -0.5 | -3.8
37 | CC(=O)Nc1cc(-c2ccccc2N(C)C)cn2c(-c3ccccc3)cnc12 | i | -19 | -61 | 10 | 2.0
38 | C[C@@H]1CN([C@@H](C)CO)C(=O)c2cc(NS(C)(=O)=O)ccc2O[C@@H]1CN(C)Cc1ccc(Cl)c(Cl)c1 | i | -7 | -19 | 3.1 | 5.0
39 | C[C@H](CO)N1C[C@H](C)[C@@H](CN(C)Cc2ccc(Cl)c(Cl)c2)OCCCC[C@H](C)Oc2ccc(NS(=O)(=O)c3cccs3)cc2C1=O | i | -7 | -31 | 19 | 2.6
40 | C[C@@H]1CN([C@@H](C)CO)C(=O)Cc2cc(N(C)C)ccc2O[C@H]1CN(C)Cc1ccc(C(=O)O)cc1 | i | 1 | -4 | -1.9 | 0.0

cpd | SMILES | FGF22 binding | rRNA inh HTS | rRNA inh HTS OD600 | rRNA inh HTS RFP | MLL AF4-AF9 inh
41 | Cn1/c(=N/N=C/c2ccccn2)sc2ccccc21 | i | -4 | -11 | 0.7 | 10
42 | CC(=O)Nc1cc(-c2ccccc2)cn2c(-c3ccc(F)c(Cl)c3)cnc12 | i | -2 | -1 | 1.7 | -2.2
43 | CC(Oc1ccccc1)C(=O)N1CCN(S(=O)(=O)c2ccc(OC(F)(F)F)cc2)CC1 (configuration not stated) | i | 0 | -9 | -0.7 | -5.2
44 | O=C(c1cccc(F)c1)N1CC(=O)N2[C@H](CO)[C@H](c3ccc(-c4ccccc4F)cc3)[C@@H]2C1 | i | -4 | -24 | 0.6 | -0.1
45 | C[C@H](CO)N1C[C@H](C)[C@H](CN(C)C(=O)Nc2ccc(F)cc2)Oc2ccc(NS(C)(=O)=O)cc2C1=O | i | -1 | 8 | -3.5 | -2.5
46 | C[C@H](CO)N1C[C@H](C)[C@H](CN(C)Cc2ccccc2)OCCCC[C@H](C)Oc2ccc(NC(=O)Nc3ccccc3)cc2C1=O | i | 2 | 1 | -0.9 | 9.9
47 | C[C@H](c1ccccc1)N1C[C@@H](COCc2ccccc2)Oc2cc(N3CC[C@@H](N(C)C)C3)ccc2S1(=O)=O | i | -16 | -29 | 10 | 21
48 | C[C@H]1CN([C@@H](C)CO)C(=O)c2cc(NC(=O)CCC(F)(F)F)ccc2O[C@@H]1CN(C)S(=O)(=O)c1cccs1 | i | 2 | -4 | 0.1 | -3.0
49 | Cc1ccc(-c2ccc([C@H]3[C@H](CO)N4C(=O)CN(C(=O)c5ccc(F)cc5)C[C@@H]34)cc2)cc1 | i | 2 | -21 | 2.4 | 0.8
50 | Cc1noc(C)c1NC(=O)N(C)C[C@@H]1Oc2c(NC(=O)Nc3cccc4ccccc34)cccc2C(=O)N([C@@H](C)CO)C[C@H]1C | i | -4 | -2 | 0.9 | 0.1

The closing 4 entries of the section above come first, to join the parts:
cpd | SMILES | FGF22 binding | rRNA inh HTS | rRNA inh HTS OD600 | rRNA inh HTS RFP | MLL AF4-AF9 inh
47 | C[C@H](c1ccccc1)N1C[C@@H](COCc2ccccc2)Oc2cc(N3CC[C@@H](N(C)C)C3)ccc2S1(=O)=O | i | -16 | -29 | 10 | 21
48 | C[C@H]1CN([C@@H](C)CO)C(=O)c2cc(NC(=O)CCC(F)(F)F)ccc2O[C@@H]1CN(C)S(=O)(=O)c1cccs1 | i | 2 | -4 | 0.1 | -3.0
49 | Cc1ccc(-c2ccc([C@H]3[C@H](CO)N4C(=O)CN(C(=O)c5ccc(F)cc5)C[C@@H]34)cc2)cc1 | i | 2 | -21 | 2.4 | 0.8
50 | Cc1noc(C)c1NC(=O)N(C)C[C@@H]1Oc2c(NC(=O)Nc3cccc4ccccc34)cccc2C(=O)N([C@@H](C)CO)C[C@H]1C | i | -4 | -2 | 0.9 | 0.1
51 | COc1ccc(S(=O)(=O)Nc2cccc3c2O[C@@H](CN(C)S(=O)(=O)c2cn(C)cn2)[C@H](C)CN([C@@H](C)CO)C3=O)cc1 | i | 2 | 4 | -1.6 | -2.2
52 | Cc1ccc(S(=O)(=O)N(C)C[C@@H]2Oc3ccc(NC(=O)Nc4ccccc4)cc3C(=O)N([C@@H](C)CO)C[C@H]2C)cc1 | i | -3 | -21 | -2.6 | 2.4
53 | C[C@@H]1CN([C@@H](C)CO)C(=O)Cc2cc(NC(=O)C3CC3)ccc2O[C@H]1CN(C)C(=O)Nc1cccc2ccccc12 | i | 0 | 1 | 3.2 | -0.9
54 | N#C[C@@H]1[C@@H](c2ccc(C3=CCCCC3)cc2)[C@H](CO)N1S(=O)(=O)c1ccccc1 | + | -19 | -54 | 22 | 5.0
55 | C[C@H]1CN([C@@H](C)CO)C(=O)c2cc(C#CC3CCCC3)cnc2O[C@@H]1CN(C)C(=O)C1CCC1 | i | 1 | 3 | 0.7 | -1.1
56 | CCCNC(=O)N(C)C[C@@H]1Oc2cc(C#CC(C)(C)O)ccc2S(=O)(=O)N([C@H](C)CO)C[C@@H]1C | i | 3 | 10 | -0.5 | -2.8
57 | CCCCNc1c(-c2cccc(OC)c2)nc2nc(C)cc(C)n12 | i | 8 | 9 | -0.1 | 3.8
58 | C[C@H]1CN([C@@H](C)CO)S(=O)(=O)c2ccc(-c3ccccc3F)cc2O[C@@H]1CN(C)Cc1cccnc1 | i | -57 | -77 | -15 | 7.5
59 | CC1CCC(NC(=O)C2CCC(CNS(=O)(=O)c3ccc4c(c3)C(C)(C)C(=O)N4C)CC2)CC1 (configuration not stated) | i | 6 | 15 | -0.5 | -3.6
60 | O=C(c1ccncc1)N1CC[C@@H]2[C@H]1c1cc(-c3ccc(F)cc3)ccc1N[C@@H]2CO | i | -7 | -36 | 6.9 | -1.1
61 | CCOC(=O)Cc1ccc(Nc2nc(NCc3ccccc3)nc3ccsc23)cc1 | i | 19 | -25 | 6.1 | -4.4
62 | C[C@H]1CN([C@@H](C)CO)C(=O)Cc2cc(NC(=O)Nc3ccc(F)cc3)ccc2O[C@@H]1CN(C)CC1CCCCC1 | i | -7 | -48 | 20 | 3.5
63 | C[C@@H]1CN([C@@H](C)CO)C(=O)c2cc(NC(=O)Nc3ccccc3)ccc2O[C@@H](C)CCCCO[C@@H]1CN(C)C(=O)CCC(F)(F)F | i | -4 | -2 | 0.9 | 1.3
